D2 agonist: agonists of human D2 dopamine receptor (beta-arrestin). P14416. DiscoveRx PathHunter D2 beta-arrestin, luminescence, 90 min; 100% = 57 uM dopamine signal. activation, % (concentration not given with the values). 360,000 compounds, 0.084% hits; in the data active = activation above about 40%; inconclusive = about 15% to 40%; inactive = below about 15%; note: the text of the record calls up to 30% inactive
Target sequence (P14416 whole entry, looked up): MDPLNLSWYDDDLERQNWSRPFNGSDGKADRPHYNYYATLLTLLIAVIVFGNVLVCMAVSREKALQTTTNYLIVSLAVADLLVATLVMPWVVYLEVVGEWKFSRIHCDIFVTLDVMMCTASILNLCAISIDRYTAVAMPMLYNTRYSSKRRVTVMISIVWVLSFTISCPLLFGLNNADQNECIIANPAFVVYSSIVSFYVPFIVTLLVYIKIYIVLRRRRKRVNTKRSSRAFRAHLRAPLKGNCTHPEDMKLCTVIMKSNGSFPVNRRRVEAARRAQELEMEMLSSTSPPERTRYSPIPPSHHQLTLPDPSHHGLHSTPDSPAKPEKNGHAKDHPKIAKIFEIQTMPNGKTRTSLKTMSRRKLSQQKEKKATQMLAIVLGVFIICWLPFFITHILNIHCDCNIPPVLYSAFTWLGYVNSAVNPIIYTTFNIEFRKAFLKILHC
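Agonist mode: compounds alone added to overnight-plated D2 PathHunter cells for 90 min at 37 C, with 57 uM final dopamine (EC100) defining full response. Beta-arrestin recruitment detected by chemiluminescent reagent, read after 1 h at ambient temperature.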
D2 PAM: potentiates the human D2 dopamine receptor allosterically. AID 624464. P14416. DiscoveRx D2 beta-arrestin cells, luminescence, 90 min; 100% = 57 uM dopamine signal. potentiation, % (no concentration beside the values). 360,000 compounds, 0.23% hits; active = potentiation of 50% or more; inconclusive = 30% to 50%; inactive = 30% or less;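 note: compound concentration not given in the record; tested on top of an EC20 dose of dopamine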
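PathHunter beta-arrestin assay in DiscoveRx D2 cells. Compounds were added with an EC20 of dopamine (50 nM final) for 90 min at 37 deg C. Luminescence was read 1 h after detection reagent, with 57 uM dopamine as the EC100 control.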
PINK1 expr mod: changes PINK1 expression | 410,000 compounds, 0.2% hits | PINK1 immunofluorescence, high-content cytometry, 24 h | Potency, µM (series often up to 76.6 µM), for inactives: top-dose activation (PINK1 increase), hits mostly activators | AID 624263; active = well fitted activation curve with a large enough effect; inconclusive = small, poorly fitted or top-dose-only effect; inactive = flat fitted curve, though single readings scatter; cell line not stated here;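 note: potency is the fitted concentration of half-maximal effect; % of control where 0% means no effect; nearly all actives have a fitted effect of over 65% in size; a mitochondrial uncoupler was the plate control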
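Measures PINK1 amount and localization on or inside mitochondria by immunofluorescence. Stable cells get compounds at 5 concentrations for 24 hours before fixation and staining; CCCP controls included.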
Six1-Eya2 blk: inhibitors of human Six1/Eya2 interaction; AlphaScreen GST-Six1/His-Eya2 binding, biochemical; stronger effect = lower value; control for the full effect not named in the record; 360,000 compounds, 0.56% hits; activity change, % (no concentration beside the values); in the data active = activity change below about -65%; inconclusive = about -30% to -65%; inactive = above about -30%; note: % is set by controls: 0 for no effect and ±100 for the full control effect
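Homogeneous AlphaScreen proximity assay pairing GST-Six1 with His-tagged Eya2 (added as 5X mix: 250 nM and 500 nM) in 50 mM Tris pH 8.0, 300 mM NaCl, 1 mM TCEP. Glutathione donor and nickel acceptor beads; 1 h, 37 °C, dark.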
CtBP-E1A blk: blocks the CtBP interaction with E1A | AlphaScreen GST-E1A/His-CtBP binding, 1536-well; stronger effect = lower value; control for the full effect not named in the record | activity change, % (test concentration not listed) | 340,000 compounds, 0.49% hits; in the data active means activity change below about -65%; inconclusive means about -30% to -65%; inactive means above about -30%; note: % is set by controls: 0 for no effect and ±100 for the full control effect
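GST-E1A and His-tagged CtBP (125 nM each as 5X stock) were preincubated with pin-transferred compound for 2 h at 37 °C in the dark, then glutathione donor and nickel acceptor beads were added for 1 h before AlphaScreen reading.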
TRPML1 agonist: agonists of human TRPML1 channel | Q9GZU1 | TRPML1-expressing cells, Ca2+ dye fluorescence, FDSS; host cell line not named in the record; reference of the full effect not given here | activation, % (test concentration not listed) | 410,000 compounds, 0.12% hits; in the data active = activation above about 50%; inconclusive = about 30% to 50%; inactive = below about 30%; note: 0% is about no effect; the text of the record puts the active cut at 80%
Target sequence (Q9GZU1 whole entry, looked up): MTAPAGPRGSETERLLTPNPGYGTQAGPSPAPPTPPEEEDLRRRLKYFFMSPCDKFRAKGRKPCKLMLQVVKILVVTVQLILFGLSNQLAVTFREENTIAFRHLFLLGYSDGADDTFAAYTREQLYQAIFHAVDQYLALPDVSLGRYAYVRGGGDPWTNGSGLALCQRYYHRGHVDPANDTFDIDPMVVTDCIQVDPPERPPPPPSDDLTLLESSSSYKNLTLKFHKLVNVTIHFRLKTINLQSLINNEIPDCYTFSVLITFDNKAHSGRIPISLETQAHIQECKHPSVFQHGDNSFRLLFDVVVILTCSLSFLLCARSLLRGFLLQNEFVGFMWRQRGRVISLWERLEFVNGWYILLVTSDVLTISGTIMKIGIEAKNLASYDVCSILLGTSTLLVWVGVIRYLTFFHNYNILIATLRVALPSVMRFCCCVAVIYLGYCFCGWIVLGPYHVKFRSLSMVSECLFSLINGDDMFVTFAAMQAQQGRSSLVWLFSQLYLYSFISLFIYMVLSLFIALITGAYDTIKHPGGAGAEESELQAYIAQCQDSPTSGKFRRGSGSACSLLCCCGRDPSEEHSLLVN
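Kinetic FDSS Ca2+ read in Tet-induced TRPML1-DL cells (ABD Ca8 dye plus quencher, 45-90 min RT loading): baseline, then compound, then 110 s agonist window; EC80 agonist 54-4 at 4uM final added afterwards for a 110 s antagonist window.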
* hit, by the source's call; & = joins results of further samples; [ ] = another dose, or the depositor's remark. Outcome played no part in choosing rows, and some 1.3% of all compounds hit somewhere here.

`CNC(=S)NNC(=O)c1cccn(Cc2cccc(Cl)c2)c1=O` gave D2 agonist -0.9, D2 PAM 3, PINK1 expr mod 19%[38.3 µM], Six1-Eya2 blk -18, CtBP-E1A blk -28 and TRPML1 agonist 0.0.
For COc1ccc(N2Cc3ccccc3C2=NC(=O)c2cccc([N+](=O)[O-])c2)cc1 the results were D2 agonist -0.5, D2 PAM 12, PINK1 expr mod -1.6%, Six1-Eya2 blk -3, CtBP-E1A blk -2 and TRPML1 agonist 0.1.
For Cc1cc2nc(N3CCN(C(=O)c4ccco4)CC3)sc2cc1C the results were D2 agonist -0.8, D2 PAM -4, PINK1 expr mod 2.3%, Six1-Eya2 blk -6, CtBP-E1A blk 4 and TRPML1 agonist 1.5.
Cc1c(C)c2ccc(OCC(=O)NCCc3c[nH]c4ccccc34)c(C)c2oc1=O was read as D2 agonist -3.3, D2 PAM -26, PINK1 expr mod 6.5%, Six1-Eya2 blk 1 and CtBP-E1A blk 6.
For Cc1ccc(CCNC(=O)CN(c2cc(C)cc(C)c2)S(=O)(=O)c2c(C)noc2C)cc1 the results were D2 agonist -3.6, D2 PAM -4, PINK1 expr mod 6.0%&1.2%, Six1-Eya2 blk 12 and TRPML1 agonist -1.1&0.8.
NCCCCC(C(=O)O)N(C(=O)OCc1ccccc1)C(=O)OCc1ccccc1 (configuration not stated) was read as D2 agonist -3.7, D2 PAM 3, PINK1 expr mod 0.8%, Six1-Eya2 blk 7, CtBP-E1A blk -17 and TRPML1 agonist 0.0.
`Cc1c(/C=N\NC(=O)C2COc3ccc(C(C)(C)C)cc3O2)c2ccccc2n1C` (configuration not stated) gave D2 agonist 45*, D2 PAM 118*, PINK1 expr mod 12%, Six1-Eya2 blk 1, CtBP-E1A blk -1 and TRPML1 agonist 0.9.
Screening COc1ccc(C(=O)CCC(=O)Nc2cc(Cl)c(O)c(Cl)c2)cc1 returned D2 agonist -0.7, D2 PAM 1, PINK1 expr mod 3.8%, Six1-Eya2 blk -7, CtBP-E1A blk 2 and TRPML1 agonist -0.6.
`O=C(Nc1ccc(CN2CCOCC2)cc1)c1ccc(Br)o1` gave D2 agonist -5.0, D2 PAM -9, PINK1 expr mod 2.8%, Six1-Eya2 blk 13 and TRPML1 agonist 1.0.
For Cc1c(NC(=O)CSc2ccccc2F)c(=O)n(-c2ccccc2)n1C the results were D2 agonist -2.5, D2 PAM 0, PINK1 expr mod -1.1%, Six1-Eya2 blk 15, CtBP-E1A blk -2 and TRPML1 agonist -0.2.
CC(C)C[C@H](NC(=O)c1nc[nH]c1C(=O)N1CCN(C(=O)OC(C)(C)C)CC1)C(=O)OCc1ccccc1 was read as D2 agonist -0.8, D2 PAM 3, PINK1 expr mod 1.1%, Six1-Eya2 blk -11, CtBP-E1A blk -7 and TRPML1 agonist 0.1.
Cc1ccc(N=Cc2ccc(N(C)C)cc2)cc1 was read as D2 agonist -4.0, D2 PAM -3, PINK1 expr mod 2.6%, Six1-Eya2 blk 3, CtBP-E1A blk 7 and TRPML1 agonist -0.7.
For O=C(COC(=O)C(Cc1ccccc1)NC(=O)c1cccs1)NCc1ccccc1 (configuration not stated) the results were D2 agonist -3.3, D2 PAM -2, PINK1 expr mod 0.1%, Six1-Eya2 blk -2, CtBP-E1A blk 0 and TRPML1 agonist 0.5.
Screening COc1ccc2ccccc2c1C(O)c1nccn1C (configuration not stated) returned D2 agonist 2.7, D2 PAM 29, PINK1 expr mod 21%[38.3 µM], Six1-Eya2 blk inconclusive, CtBP-E1A blk -25 and TRPML1 agonist 5.6.
O=C(Nc1ccc(F)cc1)N1CCC(c2nc3c(nnn3Cc3cccc(Cl)c3)c(=O)[nH]2)CC1 was read as D2 agonist 2.1, D2 PAM -6, PINK1 expr mod 12%[38.3 µM], Six1-Eya2 blk -6, CtBP-E1A blk -4 and TRPML1 agonist 1.7.
Screening O=C(Cc1ccccc1)NNC1=NS(=O)(=O)c2ccccc21 returned D2 agonist -5.5, D2 PAM -4, PINK1 expr mod -0.5%, Six1-Eya2 blk -4, CtBP-E1A blk -5 and TRPML1 agonist -0.9.
For CCNc1nc(NC(C)C)nc(-c2ccncc2)n1 the results were D2 agonist 3.3, D2 PAM 0, PINK1 expr mod 1.2%, Six1-Eya2 blk 2, CtBP-E1A blk 0 and TRPML1 agonist -0.5.
Screening O=C(Nc1cccc(S(=O)(=O)NC2=NCCC2)c1)c1cnc(Cl)c(Cl)c1 returned D2 agonist 7.1, D2 PAM 0, PINK1 expr mod 0.3%, Six1-Eya2 blk -2, CtBP-E1A blk -4 and TRPML1 agonist 3.4.
`O=C(O)c1ccc(S(=O)(=O)N(CCc2ccccc2)Cc2ccc(Cl)cc2)cc1` gave D2 agonist -0.4, D2 PAM -11, PINK1 expr mod -0.4% and Six1-Eya2 blk 6.
For C[C@@H]1CN([C@H](C)CO)C(=O)CCCn2cc(nn2)CO[C@H]1CN(C)S(=O)(=O)c1ccc(C#N)cc1 the results were D2 agonist -2.2, D2 PAM 2, PINK1 expr mod -1.0%, Six1-Eya2 blk -4, CtBP-E1A blk 2 and TRPML1 agonist -0.5.
Screening CN(C)CCCN(C(=O)c1ccco1)c1nc2c(F)cccc2s1 returned D2 agonist -2.8, D2 PAM -27, PINK1 expr mod 2.2%, Six1-Eya2 blk -3 and CtBP-E1A blk -1.
For O=C(CNC(=O)c1ccco1)OCc1ccccc1F the results were D2 agonist 1.1, D2 PAM -1, PINK1 expr mod 0.1%, Six1-Eya2 blk -3, CtBP-E1A blk -6 and TRPML1 agonist -0.6.
`Cc1ccc(C(=O)c2oc3ccccc3c2NC(=O)c2cc(-c3ccccc3O)n[nH]2)cc1` gave D2 agonist 4.2, D2 PAM -6, PINK1 expr mod inconclusive, Six1-Eya2 blk -7, CtBP-E1A blk 1 and TRPML1 agonist 1.1.
For N#Cc1nc(-c2ccccc2)oc1NCCCn1ccnc1 the results were D2 agonist -0.6, D2 PAM -3, PINK1 expr mod -1.1%, Six1-Eya2 blk -2, CtBP-E1A blk 1 and TRPML1 agonist -0.8.
O=C(/C=C/c1ccc(OCCCF)cc1)N1CCOCC1 was read as D2 agonist 3.8, D2 PAM 3, PINK1 expr mod -0.6%, Six1-Eya2 blk 6, CtBP-E1A blk -1 and TRPML1 agonist 1.4.
`COc1cccc(NC(=O)CSc2nnc(COc3ccc4c(c3)CCCC4)o2)c1` gave D2 agonist -2.9, D2 PAM 19, PINK1 expr mod -0.1%, Six1-Eya2 blk 2, CtBP-E1A blk 2 and TRPML1 agonist 0.2.
O=C(NCCCN1CCOCC1)c1cc(S(=O)(=O)N2CCCCC2)ccc1Cl was read as D2 agonist -1.8, D2 PAM -12, PINK1 expr mod -0.5%, Six1-Eya2 blk 21, CtBP-E1A blk 4 and TRPML1 agonist -0.1.
`CCCn1nc(C(=O)NNC(=O)CSCC(=O)Nc2cc(C)on2)c2ccccc2c1=O` gave D2 agonist -4.7, D2 PAM -15, PINK1 expr mod -1.2%, Six1-Eya2 blk -18, CtBP-E1A blk -2 and TRPML1 agonist 1.6.
Screening CC(C)(C)NC(=O)C(c1ccccn1)N(C(=O)c1csnn1)C1CCCC1 (configuration not stated) returned D2 agonist -4.4, D2 PAM -4, PINK1 expr mod 3.6%, Six1-Eya2 blk 1, CtBP-E1A blk 0 and TRPML1 agonist -0.5.
For CNC(=O)C(=O)NCCc1ccc(Cl)cc1 the results were D2 agonist -3.8, D2 PAM -2, PINK1 expr mod -1.8%, Six1-Eya2 blk -1, CtBP-E1A blk -1 and TRPML1 agonist -0.9.
Screening COc1ccc(-c2ccnc3nc(N4CCOCC4)nn23)cc1 returned D2 agonist 0.5, D2 PAM -4, PINK1 expr mod -4.5%, Six1-Eya2 blk -1, CtBP-E1A blk -9 and TRPML1 agonist 1.0.
Screening COc1ccc(S(=O)(=O)N(C)C)cc1NC(C)C(=O)Nc1cccc(C#N)c1 (configuration not stated) returned D2 agonist 1.1, D2 PAM -13, PINK1 expr mod -0.2%, Six1-Eya2 blk 3, CtBP-E1A blk -5 and TRPML1 agonist 0.7.
For O=C(NNC(=O)c1ccccc1OCc1ccc(F)cc1)c1ccccc1O the results were D2 agonist -7.7, D2 PAM -1, PINK1 expr mod -2.2%, Six1-Eya2 blk -12, CtBP-E1A blk -17 and TRPML1 agonist 0.2.
For COc1cccc(N2CCN(C(=O)c3ccc(N4C(=O)NC5CC4(C)Oc4ccccc45)cc3)CC2)c1 (configuration not stated) the results were D2 agonist -1.4, D2 PAM -2, PINK1 expr mod 0.1%, Six1-Eya2 blk 0, CtBP-E1A blk -12 and TRPML1 agonist 0.7.
For CCOC(=O)C1=C(O)C(Nc2nc3ccccc3s2)(C(F)(F)F)N=C1C (configuration not stated) the results were D2 agonist -0.2, D2 PAM -5, PINK1 expr mod 52%[38.3 µM], Six1-Eya2 blk 4, CtBP-E1A blk 5 and TRPML1 agonist 1.0.
For CCn1cc(C(=O)NCCc2ccccc2)c(=O)c2cc(S(=O)(=O)N3CCCC3)ccc21 the results were D2 agonist -1.2, D2 PAM -1, PINK1 expr mod 1.4%, Six1-Eya2 blk 7, CtBP-E1A blk -9 and TRPML1 agonist 0.8.
CCc1ccc(Nc2nnc(SCC(=O)N(C)C3CCS(=O)(=O)C3)s2)cc1 (configuration not stated) was read as D2 agonist 5.3, D2 PAM -2, PINK1 expr mod -1.9%, Six1-Eya2 blk 2, CtBP-E1A blk -13 and TRPML1 agonist 0.7.
Screening Cc1nc2ccc(NS(=O)(=O)c3ccccc3Cl)cc2s1 returned D2 agonist -1.5, D2 PAM 0, PINK1 expr mod 1.3%, Six1-Eya2 blk -1 and TRPML1 agonist -1.6.
S=C(Nc1ccccn1)c1ccccn1 was read as D2 agonist 2.7, D2 PAM 12, PINK1 expr mod 3.9%, Six1-Eya2 blk -92*, CtBP-E1A blk -89* and TRPML1 agonist -0.9.
For O=S(=O)(NCc1ccccc1)c1ccc(Br)c2nsnc12 the results were D2 agonist -0.9, D2 PAM 3, PINK1 expr mod -0.6%, Six1-Eya2 blk -3, CtBP-E1A blk -5 and TRPML1 agonist 0.7.
C=CCNc1cnn(CC(C)=O)c(=O)c1Br was read as D2 agonist -3.2, D2 PAM -7, PINK1 expr mod -3.4%, Six1-Eya2 blk 1, CtBP-E1A blk 0 and TRPML1 agonist 0.6.

Gathered by group, those above containing a tert-butyl group.
`Cc1c(/C=N\NC(=O)C2COc3ccc(C(C)(C)C)cc3O2)c2ccccc2n1C` (configuration not stated) gave D2 agonist 45*, D2 PAM 118*, PINK1 expr mod 12%, Six1-Eya2 blk 1, CtBP-E1A blk -1 and TRPML1 agonist 0.9.
CC(C)C[C@H](NC(=O)c1nc[nH]c1C(=O)N1CCN(C(=O)OC(C)(C)C)CC1)C(=O)OCc1ccccc1 was read as D2 agonist -0.8, D2 PAM 3, PINK1 expr mod 1.1%, Six1-Eya2 blk -11, CtBP-E1A blk -7 and TRPML1 agonist 0.1.
Screening CC(C)(C)NC(=O)C(c1ccccn1)N(C(=O)c1csnn1)C1CCCC1 (configuration not stated) returned D2 agonist -4.4, D2 PAM -4, PINK1 expr mod 3.6%, Six1-Eya2 blk 1, CtBP-E1A blk 0 and TRPML1 agonist -0.5.
